RN4220 kill = kills Staphylococcus aureus RN4220. S. aureus RN4220 growth, OD600, 16 h. inhibition, % (concentration not given with the values). actives 0.33% (n = 330,000). AID 1259311;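 active = z-score of -3 or lower and OD600 up to 0.18 on both plates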;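 note: plate controls were untreated cells for no effect and reference antibiotic for full effect; stock transfer was 100 nL into about 80 µL; one replicate is shown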
PrP UTR inh = inhibition of PrP 5' UTR reporter expression; actives 0.35% (n = 340,000); cell-based PrP 5' UTR mRNA reporter, plate reader; inhibition, % (concentration not given with the values);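 active = every replicate at 50% or more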;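 note: 0 = median of the neutral control wells; tested in H4 reporter cells; numbers are from one replicate; inactives centre near -14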
Autofluor counter = compound fluorescence in toxin protease inhibitor counterscreen; fluorescence intensity (concentration not given with the values); actives 3.1% (n = 360,000); AID 624483; compound autofluorescence counterscreen, microsphere flow cytometry; stronger effect = higher value;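 active = at least 3 SD above the mean of all compounds, about 16000 in these data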;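 note: 100 nL of 1 mM stock went into each well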
Mtb hypoxia rep = reduces hypoxia-regulated biosensor signal in M. tuberculosis; M. tuberculosis hypoxia-regulated fluorescent reporter, fluorescence; fluorescence inhibition, % (no concentration beside the values); actives 0.1% (n = 300,000);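 active = 35 to 45% if threefold the growth effect, above 45% if 1.5-fold the growth effect; inactive = the rest, general growth blockers included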;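 note: wells of about 50 µL received 100 nL stock; 0% = vehicle wells and 100% = reference inhibitor wells; whole bacteria with a GFP reporter of the hypoxia response; strong numbers were not always called active; many hits fall short of the cut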
ugtP null kill = compounds lethal to S. aureus RN4220 ugtP deletion mutant; actives 0.54% (n = 330,000); growth inhibition, % (concentration not given with the values); OD600 growth, 16 h; some inactives read as strong as hits; AID 1259309;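 active = z-score under -3 and OD600 up to 0.15 on both plates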;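 note: plate controls were untreated wells for no effect and antibiotic for full effect; wells of about 80 µL received 100 nL stock; the first replicate is given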
BJeLR viability = kills HRASV12-expressing BJeLR cells; BJeLR (HRASV12) viability, CellTiter-Glo ATP luminescence, 48 h; reference of the scale not given here; inhibition, % (no concentration beside the values); actives 0.17% (n = 300,000); AID 1554;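 active = replicate mean above 50%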;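 note: 50 nL library stock added to about 25 µL; numbers are from one replicate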
Mtb hypoxia rep growth = also measured in Mtb hypoxia rep; calls as there; growth inhibition, %; measured here: M. tuberculosis growth (absorbance);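 0% = vehicle and 100% = reference antibiotic; read after six days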
Starred values were filed as active, the others as inactive; / = no result given.

nr	Structure	RN4220 kill	PrP UTR inh	Autofluor counter	Mtb hypoxia rep
1	CCN(C#N)c1nc(NC(C)C)nc(NC(C)(C)C)n1	7.8	-7	3735	-3
2	CC1(c2ccc(OC(F)F)cc2)NC(=O)N(CC(=O)Nc2cccnc2Cl)C1=O (stereo not drawn)	-0.5	-50	5953	-4
3	Fc1ccc(-c2ccc(C=Nn3cnnc3)o2)cc1	1.4	/	/	11
4	COc1cc(OC)cc(-c2cc(N3C(=O)Nc4ccccc4N3O)n[nH]2)c1	/	11	1862	/
5	COc1ccc(N(CCC(=O)O)S(=O)(=O)c2ccc(C)cc2C)cc1	9.9	-28	4116	4
6	CC(=O)c1sc(NN=Cc2ccc(N(C)C)cc2)nc1C	-0.6	/	/	11
7	Cc1noc(C)c1NC(=O)N(C)C[C@H]1Oc2ccc(NC(=O)C3CCCCC3)cc2C(=O)N([C@H](C)CO)C[C@@H]1C	-11	-27	3737	-2
8	CN(Cc1ccc(Cl)cc1)C(=O)c1ccccc1SCC(=O)N1CCCC1	1.8	-25	6923	4
9	COC(=O)CSc1ccc(-c2nc3ccc(C)cc3[nH]2)cn1	2.7	-22	2962	13
10	CCCCN(C(=O)C(CCSC)N1C(=O)c2ccccc2C1=O)c1c(N)n(CCC)c(=O)[nH]c1=O (stereo not drawn)	-6.1	-6	3756	-7
11	COc1cccc(N2CCN(C(=O)c3ccc(CS(=O)c4ccc(C)cc4)o3)CC2)c1 (stereo not drawn)	/	15	5861	/
12	Cc1ccnc(NC(=O)CCC(=O)N(CC(=O)NCCc2ccccc2)c2ccccc2F)c1	3.0	-7	3805	14

nr	Mtb hypoxia rep growth	ugtP null kill	BJeLR viability
1	7	19	-2
2	2	1	4
3	6	4	/
4	/	/	-6
5	9	4	-8
6	2	9	/
7	5	-6	/
8	4	15	/
9	18	4	4
10	3	-6	/
11	/	/	52*
12	3	0	8

New compounds follow.
nr	Structure	RN4220 kill	PrP UTR inh	Autofluor counter	Mtb hypoxia rep
13	Cc1ccccc1NC(=O)C(C)OC(=O)C1CC(=O)N(Cc2ccco2)C1 (stereo not drawn)	1.8	-11	3630	-4
14	CCc1cccc(C)c1NC(=S)NCc1ccc2[nH]c(C)cc2c1	-7.2	4	2743	2
15	COc1ccc(C(=O)Oc2ccc3c(c2)OCO3)cc1OC	1.9	-44	5810	5
16	CC(Oc1cc2oc(=O)c3c(c2cc1Cl)CCC3)C(=O)NCC1CCC(C(=O)O)CC1 (stereo not drawn)	0.3	-19	5301	11
17	C(=NCCCN1CCOCC1)c1ccc2c(c1)OCO2	3.4	-12	10927	6
18	O=C1c2ccccc2NC(c2cccc(O)c2)N1c1ccccc1 (stereo not drawn)	5.9	-12	3916	8
19	CC(=O)Nc1cccc(NC(=O)CCNC(=O)c2ccc(Cl)cc2)c1	-2.0	-10	2969	3
20	COc1ccc(/C=C(\C#N)C(=O)ONC2=NCCCCC2)cc1	8.5	-7	4343	11
21	S=C1NC2=C(C(c3ccc(Br)cc3)N1)N1CCC2CC1 (stereo not drawn)	-0.1	-23	3547	-4
22	COc1ccccc1/C=C/C(C)=O	7.3	-12	2592	11
23	O=C(CCSc1ccccc1)NC(=O)COC(=O)C1CCCCC1	2.4	1	3581	6
24	CCCOC(=O)COc1cc(C)cc2oc(=O)c3c(c12)CCC3	0.4	-2	12573	-5

nr	Mtb hypoxia rep growth	ugtP null kill	BJeLR viability
13	-1	5	/
14	1	-8	2
15	0	-5	4
16	-1	6	6
17	10	7	-5
18	4	3	7
19	-5	-4	-9
20	7	8	-9
21	9	-4	4
22	8	7	5
23	1	4	-5
24	0	2	-4

Just PrP UTR inh and ugtP null kill, for some of the entries so far:
| nr | SMILES | PrP UTR inh | ugtP null kill |
| --- | --- | --- | --- |
| 22 | COc1ccccc1/C=C/C(C)=O | -12 | 7 |
| 17 | C(=NCCCN1CCOCC1)c1ccc2c(c1)OCO2 | -12 | 7 |

Going on with the list:
nr	Structure	RN4220 kill	PrP UTR inh	Autofluor counter	Mtb hypoxia rep
25	Cc1nc2ccc(NC(=O)c3ccc(Cl)nc3)cc2s1	2.3	-17	4475	9
26	COc1ccc2nc(NC(=O)c3ccccc3C(=O)O)sc2c1	1.8	-5	3612	-5
27	CCC(CC)C(=O)c1c[nH]c(C(=O)NCCOC)c1	1.6	-23	4218	12
28	CN(C(=O)COc1coc(CN2CCN(c3ccccc3)CC2)cc1=O)c1ccccc1	2.9	-8	/	-3
29	CCc1nnc(NC(=O)c2cc(-c3ccccc3)nn2-c2ccccc2)s1	13	-33	9655	14
30	Cc1ccc(NS(=O)(=O)c2ccc(C(=O)N3CC(C)OC(C)C3)cc2)cc1 (stereo not drawn)	-0.1	-23	5722	9
31	CCCN(C(=O)/C=C/c1ccco1)c1c(N)n(Cc2ccccc2)c(=O)[nH]c1=O	1.4	-34	4339	10
32	CN(CC(=O)Nc1cccc(F)c1)C(=O)c1ccccc1CCc1ccccc1	-4.8	-19	7261	3
33	COC(=O)C1=C(c2ccc(S(C)(=O)=O)cc2)C[C@@H]2CC[C@H]1N2C(=O)NC1CCCCC1	/	-6	4041	/
34	O=[N+]([O-])c1ccc(C2=NN(CCO)C(=Nc3ccc(OC(F)(F)F)cc3)SC2)cc1	5.0	-7	4730	6
35	CNC(=S)NNC(=O)CNc1ccc(C)c(Cl)c1	4.3	-19	7668	12
36	CCOC(=O)c1cnc2c(cnn2C)c1NCCC#N	1.4	-4	5342	3

nr	Mtb hypoxia rep growth	ugtP null kill	BJeLR viability
25	14	9	-3
26	6	-4	-7
27	13	7	-8
28	-11	3	2
29	15	-8	-23
30	4	1	10
31	9	5	8
32	7	-5	-6
33	/	/	-9
34	3	-24	-3
35	-2	2	-1
36	4	2	1

Next results
nr	Structure	RN4220 kill	PrP UTR inh	Autofluor counter	Mtb hypoxia rep
37	COc1ccc(NC(=O)CCN2CCN(C/C=C/c3ccccc3)CC2)cc1	1.5	-15	3713	5
38	COCCn1c(C)cc(C(=O)CSc2nncn2-c2ccccc2)c1C	3.9	-29	8893	-1
39	CN(c1ccc(C(=O)NCc2cccnc2)cc1)S(C)(=O)=O	2.2	-11	2232	/
40	CCN(CC)S(=O)(=O)c1ccc(NC(=O)Cn2cnc3ccccc3c2=O)cc1	-0.4	-41	9928	11
41	COCCn1c(N)c(N(Cc2ccccc2)C(=O)COc2ccc(F)cc2Cl)c(=O)[nH]c1=O	2.8	-7	5683	5
42	Cc1cc2oc(=O)cc(CN3CCOCC3)c2cc1C(C)C	1.8	-5	5502	-1
43	CSc1nnc(-c2ccc(Br)s2)n1C	4.5	-9	6204	-1
44	CCO[C@H]1OC(C(=O)N2CCN(Cc3ccc4c(c3)OCO4)CC2)=C[C@@H](C2CC2)[C@@H]1CCCO	/	-16	4004	/
45	Cc1cc(C(=O)Nc2c(C)n(C)n(-c3ccccc3)c2=O)c(C)o1	2.5	-6	10542	9
46	COc1cccc(C(C(=O)NC2CCCCC2)N(Cc2ccco2)C(=O)c2ccccn2)c1 (stereo not drawn)	6.9	-9	2969	6
47	COc1ccc(NC(=O)c2cccnc2C(=O)O)c(OC)c1	3.3	-25	20348*	7
48	O=[N+]([O-])c1ccccc1/C=N/OCc1ccccc1	/	-62	3142	/

nr	Mtb hypoxia rep growth	ugtP null kill	BJeLR viability
37	5	3	-8
38	-8	-10	-4
39	/	4	/
40	1	0	-23
41	5	3	-7
42	-3	4	-1
43	-10	0	0
44	/	/	3
45	10	9	-4
46	-2	13	2
47	0	11	-9
48	/	/	-13

Record cards, from the list above. Screens in order: RN4220 kill | PrP UTR inh | Autofluor counter | Mtb hypoxia rep | Mtb hypoxia rep growth | ugtP null kill | BJeLR viability
Record of `COC(=O)C1=C(c2ccc(S(C)(=O)=O)cc2)C[C@@H]2CC[C@H]1N2C(=O)NC1CCCCC1` → / | -6 | 4041 | / | / | / | -9
Record of `COc1ccc2nc(NC(=O)c3ccccc3C(=O)O)sc2c1` → 1.8 | -5 | 3612 | -5 | 6 | -4 | -7

(continued)
nr	Structure	RN4220 kill	PrP UTR inh	Autofluor counter	Mtb hypoxia rep
49	Cc1ccc(-n2c(O)c(C=Nc3ccc4c(c3)OCO4)c3ccccc3c2=O)cc1C	-1.3	22	22790*	8
50	Cc1ccc(C)n1-c1ccc(C(=O)NN)s1	1.8	-12	4345	5
51	O=c1c2ccccc2c(-c2ccc(Cl)cc2)nn1-c1ccccc1	-0.4	-1	4138	6
52	CC(=O)Nc1ccc(S(=O)(=O)NNC(=O)COc2ccc(Cl)cc2Cl)cc1	0.8	4	4752	5
53	COCCN1CCN(C(=O)c2ccc3c(c2)S(=O)(=O)c2ccccc2C3=O)CC1	-12	/	/	9
54	CN1CCN(C(=O)C2=C[C@H](C3CCCCC3)C[C@H](OCc3ccc(CO)cc3)O2)CC1	/	-11	2688	/
55	O=C(NCCn1cccn1)c1ccc(OC2CCN(C(=O)C3CC3)CC2)cc1	-0.9	-26	2086	8
56	CCOC(=O)c1ccc(NC(=S)NCCc2ccccc2)cc1	1.4	-11	2886	9
57	CCOC(=O)c1ccc(NS(=O)(=O)c2cc3c(cc2C)NC(=O)CO3)cc1	1.0	-30	6226	-4
58	CC(CNC(=O)CCn1ccc2cc(S(=O)(=O)N3CCCC3)ccc21)c1ccccc1 (stereo not drawn)	3.3	-10	6398	7
59	CNc1nnc(SCC(=O)c2c(N)n(C3CC3)c(=O)[nH]c2=O)s1	0.3	-24	6233	12
60	COCCN(CCOC)C(=S)Nc1ccccc1Cl	5.6	9	3431	-3

nr	Mtb hypoxia rep growth	ugtP null kill	BJeLR viability
49	8	-14	9
50	-5	8	-5
51	9	0	-1
52	-4	3	-13
53	2	-5	0
54	/	/	7
55	1	6	-1
56	6	-17	-1
57	9	6	-14
58	11	-1	-9
59	13	5	/
60	-4	3	2

Structural class, those above containing fluorine (6)
nr	Structure	RN4220 kill	PrP UTR inh	Autofluor counter	Mtb hypoxia rep
2	CC1(c2ccc(OC(F)F)cc2)NC(=O)N(CC(=O)Nc2cccnc2Cl)C1=O (stereo not drawn)	-0.5	-50	5953	-4
3	Fc1ccc(-c2ccc(C=Nn3cnnc3)o2)cc1	1.4	/	/	11
12	Cc1ccnc(NC(=O)CCC(=O)N(CC(=O)NCCc2ccccc2)c2ccccc2F)c1	3.0	-7	3805	14
32	CN(CC(=O)Nc1cccc(F)c1)C(=O)c1ccccc1CCc1ccccc1	-4.8	-19	7261	3
34	O=[N+]([O-])c1ccc(C2=NN(CCO)C(=Nc3ccc(OC(F)(F)F)cc3)SC2)cc1	5.0	-7	4730	6
41	COCCn1c(N)c(N(Cc2ccccc2)C(=O)COc2ccc(F)cc2Cl)c(=O)[nH]c1=O	2.8	-7	5683	5

nr	Mtb hypoxia rep growth	ugtP null kill	BJeLR viability
2	2	1	4
3	6	4	/
12	3	0	8
32	7	-5	-6
34	3	-24	-3
41	5	3	-7
